VACV mCherry inh = qHTS for Stage-Specific Inhibitors of Vaccinia Orthopoxvirus: mCherry Reporter Primary qHTS. AID 720579, 2013. Potency, µM (series often up to 36.5 µM), for inactives: top-dose activity change, negative = inhibition, most hits filed as inhibitors. actives 0.63% (n = 310,000). Vaccinia virus mCherry reporter infection, fluorescence; about a quarter of the inactives have no number; active = well fitted inhibition curve with a large enough effect; inconclusive = small, poorly fitted or top-dose-only effect; inactive = no such curve, though single readings can be large or run the other way; tested in A549 cells; further: nearly all actives have a fitted effect of over 35% in size; inactives centre near -10
Vaccinia Venus = qHTS for Stage-Specific Inhibitors of Vaccinia Orthopoxvirus: Venus Reporter Primary qHTS. Vaccinia virus Venus reporter expression, fluorescence. Potency, µM (series often up to 36.5 µM), for the others: at the highest dose activity change, negative = inhibition, most hits filed as inhibitors. actives 0.46% (n = 330,000). AID 720580, 2013; active means well fitted inhibition curve with a large enough effect; inconclusive means small, poorly fitted or top-dose-only effect; inactive means no such curve, though single readings can be large or run the other way; tested in A549 cells; further: nearly all actives have a fitted effect of over 30% in size; inactives centre near -10
* hit, by the source's call. On the % scale 0 is the no-effect control and ±100 the full control effect; potency means the concentration at half of the fitted maximal effect.

Screening CCN(CC)C(=O)C1=C(C)N(Cc2ccc(OC)cc2)C(=O)C(CC(=O)NCc2cccc3ccccc23)C1 (centres undefined) returned VACV mCherry inh -27.2% and Vaccinia Venus -26.8%.
CCOc1cc(/C=N/NC(=O)C(=O)Nc2cc(Cl)ccc2C)ccc1O was read as VACV mCherry inh -3.1% and Vaccinia Venus -12.7%.
`C=CCNc1cc(N2CCCC2)ccc1[N+](=O)[O-]` gave VACV mCherry inh -8.6% and Vaccinia Venus -16.3%.
COc1cc2c(cc1OC)C(COc1cccc(C(F)(F)F)c1)N(C(=O)c1ccc(S(=O)(=O)N3CCCC3)cc1)CC2 (centres undefined) was read as VACV mCherry inh -1.4% and Vaccinia Venus -12.6%.
For CC1Cc2ccccc2N1CC(=O)c1c(N)n(Cc2ccccc2)c(=O)n(C)c1=O (centres undefined) the results were VACV mCherry inh -11.5% and Vaccinia Venus 0.8%.
Screening CCN(Cc1ccncc1)C(=O)c1cc(COc2c(C)cccc2C)on1 returned VACV mCherry inh inactive and Vaccinia Venus -11.8%.
For O=C1C(=O)N(CCN2CCOCC2)C(c2ccc(Cl)c(Cl)c2)/C1=C(/O)c1ccc2c(c1)OCO2 (centres undefined) the results were VACV mCherry inh -12.1% and Vaccinia Venus -4.3%.
For C[C@H]1CN([C@@H](C)CO)C(=O)c2cc(NS(=O)(=O)c3ccc(Cl)cc3)ccc2O[C@@H]1CN(C)CC1CCCCC1 the results were VACV mCherry inh -28.8% and Vaccinia Venus inconclusive.
`Cc1ccc2nc(-c3ccncc3)c(NC3CCCCC3)n2c1` gave VACV mCherry inh -13.5% and Vaccinia Venus -1.8%.
`O=C(c1ccco1)N1CCC(c2nc3c(nnn3Cc3ccccc3Cl)c(=O)[nH]2)CC1` gave VACV mCherry inh -26.0% and Vaccinia Venus -12.8%.
Screening CCc1c(C)nc2ncnn2c1N1CCC(C(=O)Nc2ccc(C)cc2)CC1 returned VACV mCherry inh -10.1% and Vaccinia Venus -27.7%.
Cc1nc(C(=O)Nc2ccccc2)sc1C(=O)Nc1ccccc1 was read as VACV mCherry inh -12.7% and Vaccinia Venus -8.2%.
Screening CCCCOc1ccc(C(=O)N/C(=C\c2ccc(OC)cc2)C(=O)OCc2ccco2)cc1 returned Vaccinia Venus -19.1%.
For CCCCCNC(=O)c1cccnc1SCC(=O)Nc1ccccc1OC the results were VACV mCherry inh -11.5% and Vaccinia Venus -15.7%.
CNc1nc2sc3c(c2c(=O)n1C)CC(C)(C)SC3 was read as Vaccinia Venus -22.5%.
`CCN(CC)CCCn1c2c(c(SCC(=O)Nc3nc(C)cs3)nc1=O)CCC2` gave VACV mCherry inh -22.8% and Vaccinia Venus -10.2%.
Cn1c(N)c(C(=O)COC(=O)CCC2CCCCC2)c(=O)n(C)c1=O was read as VACV mCherry inh -12.8% and Vaccinia Venus -10.2%.
`O=C(c1ccccc1)N1CCN(C(=O)c2nn3c(C(F)(F)F)cc(-c4ccco4)nc3c2Cl)CC1` gave VACV mCherry inh -5.3% and Vaccinia Venus 4.6%.
Screening O=C(NCC(c1ccco1)N1CCN(c2ccccc2F)CC1)OCc1ccccc1 (centres undefined) returned VACV mCherry inh -6.8% and Vaccinia Venus 2.9%.
For O=C(Nc1n[nH]c(C2CCCCC2)n1)C1CCCCC1 the results were VACV mCherry inh -27.2% and Vaccinia Venus -8.5%.
COc1cccc(N2CCN(C(=O)Cn3nc(C)n4c(cc5c(OC)cccc54)c3=O)CC2)c1 was read as VACV mCherry inh -0.4% and Vaccinia Venus -13.4%.
COc1ccc(N2c3ccccc3CN(Cc3ccccc3)[C@@H](C)[C@H]2Cc2cccnc2)cc1 was read as VACV mCherry inh -25.7% and Vaccinia Venus inconclusive.
Screening CC(=O)N[C@@H](C)C(=O)N1CCN(S(=O)(=O)c2ccc(Cl)cc2)CC1 returned VACV mCherry inh -6.4% and Vaccinia Venus -1.6%.
Nc1nnnn1CC(=O)N/N=C/c1cc([N+](=O)[O-])ccc1Cl was read as VACV mCherry inh -3.5% and Vaccinia Venus 0.2%.
C[C@@H](NC(=O)C[C@@H]1C[C@@H]2c3cc(NS(=O)(=O)c4ccc(F)cc4)ccc3O[C@@H]2[C@@H](CO)O1)c1ccccc1 was read as VACV mCherry inh -9.3% and Vaccinia Venus -17.1%.
Cc1ccc(S(=O)(=O)Nc2ccc3c(c2)C(=O)N([C@@H](C)CO)C[C@@H](C)[C@@H](CN(C)C(=O)NC(C)C)OCCCC[C@H](C)O3)cc1 was read as VACV mCherry inh 2.5% and Vaccinia Venus 0.1%.
COc1ccc(-c2[nH][nH]c(=O)c2NC(=O)c2ccccc2Br)cc1 was read as VACV mCherry inh 3.9% and Vaccinia Venus -9.3%.
`CCc1sc(NC(=O)CN2CCOCC2)nc1-c1ccccc1` gave VACV mCherry inh -26.0% and Vaccinia Venus -8.0%.
COC(=O)c1sccc1NC(=O)c1ccc(OC)c([N+](=O)[O-])c1 was read as VACV mCherry inh -10.4% and Vaccinia Venus -8.7%.
Screening COC(=O)c1ccc(NC(=O)CCN2C(=O)C3C4CCC(C4)C3C2=O)cc1 (centres undefined) returned VACV mCherry inh -27.6% and Vaccinia Venus -8.7%.
COc1cc2ncc(C(=O)c3ccccc3)c(N3CCN(Cc4ccccc4)CC3)c2cc1OC was read as VACV mCherry inh inactive and Vaccinia Venus -14.8%.
For CC1(C)C2CCC1(CS(=O)(=O)N1CCCc3ccccc31)C(=O)C2 (centres undefined) the results were Vaccinia Venus 0.7%.
`OC(C#CCN1CCCC1)(c1ccccc1)c1cccnc1` (centres undefined) gave VACV mCherry inh inactive and Vaccinia Venus -7.8%.
O=C(CC1C(=O)NCCN1CC1CCCCC1)NCc1ccc(F)cc1 (centres undefined) was read as VACV mCherry inh -16.0% and Vaccinia Venus -0.7%.
`O=C(C1CCN(Cc2ccc(F)cc2)CC1)N(CCc1ccccc1)Cc1ccccc1` gave VACV mCherry inh inconclusive and Vaccinia Venus inconclusive.
`CC(/C=C/C=C/c1ccccc1)=N/NC(=O)C(O)c1ccccc1` (centres undefined) gave VACV mCherry inh inactive and Vaccinia Venus -17.8%.
For O=C(CN(C(=O)c1csnn1)c1cccc(Cl)c1)NC1CCCCC1 the results were VACV mCherry inh -6.6% and Vaccinia Venus -1.2%.
Screening CCOc1ncccc1C(=O)OCC(=O)N(CC(C)C)c1c(N)n(Cc2ccccc2)c(=O)[nH]c1=O returned VACV mCherry inh inactive and Vaccinia Venus 2.1%.
Screening COC(=O)c1nn(-c2ccccc2)c(Sc2ccc(C)cc2)c1/C=N/O returned Vaccinia Venus -21.5%.
`CS(=O)(=O)N(CC(=O)N1CCCC1)c1cc(C(F)(F)F)ccc1Cl` gave VACV mCherry inh 1.3% and Vaccinia Venus -4.8%.
For CC(N)(C(=O)O)c1ccc(-c2nn[nH]n2)cc1 (centres undefined) the results were VACV mCherry inh -2.2% and Vaccinia Venus -14.4%.
CCN1CCN(c2ccc(NC(=O)c3ccc(Cl)c(N4CCCC4=O)c3)cc2)CC1 was read as VACV mCherry inh -8.1% and Vaccinia Venus 11.1%.
ClCCN(CCCl)c1ccc(C=NNc2ncccn2)cc1 was read as VACV mCherry inh -14.0% and Vaccinia Venus -22.9%.
Screening COc1ccc(/C=C(/NC(=O)c2ccc(OC)cc2)C(=O)NCCc2c[nH]c3ccccc23)cc1 returned VACV mCherry inh -27.0% and Vaccinia Venus -19.0%.
Cc1ccc(-c2nc(NC(=O)c3cc(C(C)(C)C)nn3C)sc2C)cc1Cl was read as VACV mCherry inh -15.7% and Vaccinia Venus -11.5%.
`CC1(C(=O)NS(=O)(=O)c2cccc(C#N)c2)CCN1C(=O)Cc1ccc(Cl)cc1Cl` (centres undefined) gave VACV mCherry inh 10.9% and Vaccinia Venus -6.8%.
For COC(=O)C1C2OC(C(Br)C2Br)C1C(=O)OC (centres undefined) the results were VACV mCherry inh -12.8% and Vaccinia Venus -3.4%.
CC(=O)NCCNc1nc2c(-c3ccc(C)cc3)nnn2c2ccccc12 was read as VACV mCherry inh 9.2% and Vaccinia Venus 3.4%.
`COc1ccc2cc(CNc3ccc(C)cc3)c(=O)n(CC(=O)Nc3ccc(C)cc3Cl)c2c1` gave VACV mCherry inh -9.3% and Vaccinia Venus -4.1%.
Screening Cc1cccc(C(=O)NCc2nnc(SCC(=O)Nc3ccccc3F)n2-c2ccccc2)c1 returned VACV mCherry inh -7.7% and Vaccinia Venus -6.4%.
Cc1cc(N2CCOCC2)nc(SCc2c(Cl)cccc2Cl)n1 was read as VACV mCherry inh inconclusive and Vaccinia Venus inconclusive.
`Cc1ccc(S(=O)(=O)N2CCC(=O)N(C(COC(=O)Nc3ccccc3)Cc3ccccc3)CC2)cc1` (centres undefined) gave VACV mCherry inh -8.9% and Vaccinia Venus -26.1%.
`Nn1c(SCC(=O)NCc2ccc3c(c2)OCO3)nnc1C1CC1` gave Vaccinia Venus -10.4%.
For Cn1c(SCC(=O)N2CCOCC2)nc2c(c1=O)SCC2 the results were VACV mCherry inh inactive and Vaccinia Venus -4.6%.
CCN(Cc1ccccc1)C(=O)CSc1ncn[nH]1 was read as VACV mCherry inh inactive and Vaccinia Venus 2.2%.
For Clc1ccc(CSc2nncn2-c2ccc3c(c2)OCCO3)cc1 the results were VACV mCherry inh inconclusive and Vaccinia Venus -25.1%.
NC(Cc1ccc(Cl)cc1)C(=O)O (centres undefined) was read as VACV mCherry inh -4.6% and Vaccinia Venus -10.1%.
Screening Cc1cn(C(C)C)c(=O)n(-c2ccccc2)c1=O returned VACV mCherry inh inactive and Vaccinia Venus -1.6%.
For CCOC(=O)c1c(C)[nH]c(C)c1C=O the results were VACV mCherry inh -0.2% and Vaccinia Venus -13.1%.
Screening CCOC(=O)c1cccc(NC(=O)CCc2ccccc2)c1 returned VACV mCherry inh inactive and Vaccinia Venus -28.5%.
CC(=O)C1CCC2C3CC=C4N(C)C(=O)CCC4(C)C3CCC12C (centres undefined) was read as VACV mCherry inh inactive and Vaccinia Venus 1.9%.
Screening CC1=CC(=C(C#N)C#N)C=C(C)N1Cc1ccccc1 returned VACV mCherry inh -6.5% and Vaccinia Venus -7.2%.
For O=C(NCCNC(=O)c1ccc([N+](=O)[O-])cc1)c1ccncc1 the results were VACV mCherry inh -1.9% and Vaccinia Venus -6.0%.
`Cc1ccc(C(=O)Nc2ncccc2S(=O)(=O)c2ccccc2)cc1` gave VACV mCherry inh -18.2% and Vaccinia Venus -14.5%.
For CC(C)(C)c1cc(NC(=O)Nc2ccc(Br)cc2Cl)no1 the results were VACV mCherry inh inactive and Vaccinia Venus -4.5%.
CCCC(=O)c1ccc(N2CCOCC2)c(F)c1 was read as Vaccinia Venus -22.8%.
CC1CCN(C(=O)CSc2nc(-c3ccccc3)no2)CC1 was read as VACV mCherry inh -13.7% and Vaccinia Venus -6.0%.
Screening COc1ccc(OC)c(N/C=C/C(=O)c2ccc(OC)c(OC)c2)c1 returned VACV mCherry inh -4.7% and Vaccinia Venus inconclusive.
CCOc1ccc(CN2C(=O)c3ccccc3Sc3ccc(C(=O)N4CCC5(CC4)OCCO5)cc32)cc1 was read as VACV mCherry inh -6.4% and Vaccinia Venus -7.3%.
`COc1ccc(S(=O)(=O)N2CCOC23CCN(S(=O)(=O)c2ccccc2)CC3)cc1` gave VACV mCherry inh -11.3% and Vaccinia Venus -8.7%.
`O=C(O)CC/C(=N\NC(=O)c1ccc(F)cc1)c1ccc(Br)cc1` gave VACV mCherry inh -9.2% and Vaccinia Venus -6.7%.
`CC(=O)NCCc1ccc(S(=O)(=O)Nc2ccc(NC(=O)c3ccc(F)cc3)cc2)cc1` gave VACV mCherry inh inactive and Vaccinia Venus -9.1%.
`COc1cccc(CN(Cc2cccnc2)S(=O)(=O)c2ccc(-n3cnnn3)c(C)c2)c1OC` gave VACV mCherry inh -2.8% and Vaccinia Venus -14.3%.
For COC(=O)c1ccccc1NC(=O)c1ccc(COc2ccc(C)c(C)c2)o1 the results were Vaccinia Venus -1.7%.
COc1ccc(C(=O)NC2CCCCCC2)cc1S(=O)(=O)Nc1ccc(Br)cc1 was read as Vaccinia Venus -6.2%.

Among those listed so far, 8 contain an NH in an aromatic ring:
`O=C(c1ccco1)N1CCC(c2nc3c(nnn3Cc3ccccc3Cl)c(=O)[nH]2)CC1` gave VACV mCherry inh -26.0% and Vaccinia Venus -12.8%.
For O=C(Nc1n[nH]c(C2CCCCC2)n1)C1CCCCC1 the results were VACV mCherry inh -27.2% and Vaccinia Venus -8.5%.
COc1ccc(-c2[nH][nH]c(=O)c2NC(=O)c2ccccc2Br)cc1 was read as VACV mCherry inh 3.9% and Vaccinia Venus -9.3%.
Screening CCOc1ncccc1C(=O)OCC(=O)N(CC(C)C)c1c(N)n(Cc2ccccc2)c(=O)[nH]c1=O returned VACV mCherry inh inactive and Vaccinia Venus 2.1%.
For CC(N)(C(=O)O)c1ccc(-c2nn[nH]n2)cc1 (centres undefined) the results were VACV mCherry inh -2.2% and Vaccinia Venus -14.4%.
Screening COc1ccc(/C=C(/NC(=O)c2ccc(OC)cc2)C(=O)NCCc2c[nH]c3ccccc23)cc1 returned VACV mCherry inh -27.0% and Vaccinia Venus -19.0%.
CCN(Cc1ccccc1)C(=O)CSc1ncn[nH]1 was read as VACV mCherry inh inactive and Vaccinia Venus 2.2%.
For CCOC(=O)c1c(C)[nH]c(C)c1C=O the results were VACV mCherry inh -0.2% and Vaccinia Venus -13.1%.

Assay outcomes: PubChem, National Center for Advancing Translational Sciences (NCATS)
